High-throughput results (PubChem BioAssay)
E coli growth: E. coli growth inhibition | Escherichia coli growth, OD600, 23 h; hits give low values | OD600 absorbance (concentration not given with the values) | 330,000 tested, 0.21% active | AID 1053175;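 active = OD600 absorbance below the run mean of sample wells minus 3.6 SD, in any replicate, cut at about 0.56 in these data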;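 note: stock transfer was 300 nL into about 60 µL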
UCH37 inh: blocks the human deubiquitinase UCH37. 330,000 tested, 0.33% active. purified proteasome/UCH37, Ub-AMC cleavage fluorescence. inhibition, % (no concentration beside the values);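 active = mean of two replicates above 20%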;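 note: 0% = compound-free wells with enzyme and 100% = wells lacking proteasome; stock transfer was 100 nL into about 20 µL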
Target sequence (Q9Y5K5 whole entry, looked up): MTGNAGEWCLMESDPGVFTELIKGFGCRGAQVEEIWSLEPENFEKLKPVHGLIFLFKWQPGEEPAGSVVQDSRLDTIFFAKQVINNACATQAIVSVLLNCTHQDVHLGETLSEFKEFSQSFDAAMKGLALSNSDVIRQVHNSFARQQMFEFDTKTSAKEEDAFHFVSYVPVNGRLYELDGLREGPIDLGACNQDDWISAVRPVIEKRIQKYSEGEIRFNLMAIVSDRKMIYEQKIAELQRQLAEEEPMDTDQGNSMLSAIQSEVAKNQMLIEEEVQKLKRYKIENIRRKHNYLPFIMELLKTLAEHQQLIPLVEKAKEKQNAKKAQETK
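Material: Human UCH37 enzyme supplied as purified proteasome complex | Schedule: 30 min compound-proteasome preincubation then 25 min substrate reaction, room temperature | Detection: AMC fluorescence from Ub-AMC cleavage, excitation 355 nm, emission 460 nm | Benchmarks: Wells without proteasome as full block, compound-free enzyme plus substrate as uninhibited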
FGF22 binding: shifts melting point of recombinant human FGF22; AID 651658; calls only at 9.99 µM; recombinant FGF22 thermal shift, SYPRO orange fluorescence; percent of sucrose octasulfate shift, DMSO zero; 340,000 tested, 1.5% active; Q9HCT0;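 active = melting point raised past a set limit in the mean and every replicate; inconclusive = no clear call; three in four hits are not shown here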
Target sequence (Q9HCT0 whole entry, looked up): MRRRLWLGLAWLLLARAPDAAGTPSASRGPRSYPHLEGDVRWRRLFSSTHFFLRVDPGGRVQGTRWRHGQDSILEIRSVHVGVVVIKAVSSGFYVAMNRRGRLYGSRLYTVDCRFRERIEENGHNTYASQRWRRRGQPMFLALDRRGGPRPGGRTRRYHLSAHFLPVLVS
RanGTP-Impb inh: disruptors of Ran-importin-beta complex formation – biochemical, FRET, CFP-Ran, YFP-importin-beta, homogeneous, primary screen | cell-free CFP-Ran/YFP-importin-beta FRET ratio | inhibition, % (concentration not given with the values) | 300,000 tested, 1.1% active | AID 2216;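 active = most replicates above 15%; inconclusive = exactly half above 15%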;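 note: 0% = DMSO wells and 100% = Ran loaded with GDP instead of GTP; wells of about 40 µL received 100 nL stock; the first replicate is given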
MLL AF4-AF9 inh: blocks AF4 peptide binding to human AF9; AlphaScreen, biotin-AF4 peptide binding to FLAG-AF9; 350,000 tested, 0.47% active; P42568; AID 651704; inhibition, % at 10 µM;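 active = every replicate reaching a set inhibition limit, whatever the replicate mean, cut at about 25% in these data; inconclusive = mean inhibition reaches that limit but some replicates miss it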;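 note: 0% = plate neutral control median and 100% = total signal loss; the record names both 10 and 1 µM as test concentration; the first replicate is given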
Vif A3G: HIV-1 Vif–A3G interaction blockers – biochemical, TR-FRET, GST-Vif 1-94, biotin-A3G peptide, dose response retest, primary screen (AID 1117319) | inhibition, %, or IC50 in µM where a hit was titrated | TR-FRET GST-Vif / biotin-A3G peptide binding; higher % means a stronger effect; test concentration not given here; strong numbers were not always called active | 260,000 tested, 0.57% active;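 active = above the screen mean plus three standard deviations and confirmed in dose response; inconclusive = results disagree or hit not tested in dose response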;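 note: Vif residues 1-94 fused to GST binding biotinylated APOBEC3G peptide 110-148; 0% = full assay without inhibitor and 100% = GST in place of GST-Vif; retest series ran down from 100 µM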
HNF4A DNA FP: change in binding of human HNF4 alpha to DNA; activity change, % at 10 µM; AID 1224865; 360,000 tested, 0.3% active; HNF4a-FITC DNA binding, fluorescence polarization, 1 h; in the data active = activity change above about 30%, passing the limit was not always enough;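 note: controls were the assay level and a saturating level of protein; the project sought stronger binding though the title names inhibitors; some compounds called inactive have numbers as strong as hits; positive values seem to mean higher polarization but the record does not say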
Target sequence (P41235 whole entry, looked up): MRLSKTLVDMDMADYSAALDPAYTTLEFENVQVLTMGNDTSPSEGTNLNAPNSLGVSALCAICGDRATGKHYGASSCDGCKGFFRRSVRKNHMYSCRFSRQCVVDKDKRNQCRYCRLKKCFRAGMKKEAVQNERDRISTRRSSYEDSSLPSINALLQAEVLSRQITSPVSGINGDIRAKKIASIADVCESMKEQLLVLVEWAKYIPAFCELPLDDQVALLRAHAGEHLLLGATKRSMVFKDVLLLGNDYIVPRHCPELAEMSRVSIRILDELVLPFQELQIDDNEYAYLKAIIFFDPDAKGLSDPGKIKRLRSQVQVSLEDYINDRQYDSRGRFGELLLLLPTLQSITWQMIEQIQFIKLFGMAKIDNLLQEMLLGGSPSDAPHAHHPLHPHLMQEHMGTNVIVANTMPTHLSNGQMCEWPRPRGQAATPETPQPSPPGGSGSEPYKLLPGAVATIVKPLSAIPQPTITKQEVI
Numbers without * were called inactive; i = inactive; ? = inconclusive; / = not tested or not shown. This is a subset (hit frequency here may not be typical).

SMILES,E coli growth,UCH37 inh,FGF22 binding,RanGTP-Impb inh,MLL AF4-AF9 inh,Vif A3G,HNF4A DNA FP
O=C(O)CSc1nnc(NC(=O)c2ccc3c(c2)OCO3)s1,0.69,5.7,/,0.9,-2.1,-2%,-0.8
O=C(Nc1nc(-c2cc(Cl)sc2Cl)cs1)c1ccc(Br)s1,0.74,-13,/,0.0,/,3%,0.5
O=S(=O)(c1ccc2ccccc2c1)N1CCN(CCO)CC1,0.67,0.4,i,-3.9,-0.7,-4%,3.4
CC(C)N(C(=O)CSc1nnc(-c2ccc3c(c2)OCO3)n1C)C(C)C,0.67,-1.1,i,4.1,-1.8,8%,3.9
COCCCNC(=O)c1ccc(C(=O)NCCCOC)cc1,0.66,1.8,/,1.6,/,-6%,2.2
O=C(Nc1nnc(C2CC2)s1)c1cccnc1Oc1ccc(Cl)cc1,0.62,0.7,i,2.7,-3.5,10%,0.2
Cc1ccc(NC(=O)Cn2nnc(C(=O)Nc3ccc(C)c(C)c3)c2N)cc1,0.71,2.4,/,1.3,/,0%,6.0
Cc1ccc(C(=O)NCCc2ccc(S(N)(=O)=O)cc2)cc1[N+](=O)[O-],0.72,-3.7,i,2.0,-15,/,-0.1
Cc1ccc(S(=O)(=O)N2CCCOC2CNC(=O)C(=O)NC2CCCCC2)cc1 (stereo not drawn),0.7,1.5,i,-0.3,-5.0,/,2.4
CC(C)(C)NC(=O)NC(=O)CSc1n[nH]c(-c2ccccc2Br)n1,0.67,0.8,i,0.6,-0.4,19%,-2.2
CCc1ccc(N2CC(C(=O)Nc3ccc(S(=O)(=O)N4CCOCC4)cc3)CC2=O)cc1 (stereo not drawn),0.68,-0.1,i,4.0,0.7,3%,2.0
COc1ccc(NC(=O)CN2CCc3ccccc3C2)cc1,0.69,6.5,i,/,-0.3,/,-0.1
Cc1cc(NC(=O)CSc2nnnn2-c2ccc(C)c(Cl)c2)no1,0.61,1.4,i,-0.6,1.1,/,4.4
O=C(NCCO)c1scc2c1OCCO2,0.73,-1.7,/,8.6,/,2%,-0.6
O=C(Nc1ccccc1Cl)C1CCCN1C(=O)OCc1ccccc1 (stereo not drawn),0.67,1.3,i,-4.1,-1.2,7%,1.1
Cc1ccc(S(=O)(=O)NNC(=O)C2Cc3c(ccc4ccccc34)O2)cc1 (stereo not drawn),0.71,2.3,/,-0.9,/,6%,-0.4
Cc1cc(C)cc(NC(=O)CN2C(=O)NC(C)(c3ccccc3)C2=O)c1 (stereo not drawn),0.73,3.5,/,3.2,/,0%,1.2
COc1cc(/C=C/C(=O)OCC(=O)N2c3ccccc3NC(=O)C2(C)C)cc(OC)c1OC,0.69,-13,i,/,6.0,/,0.7
Cc1ccc(-n2ncc3c(=O)n(CC(=O)NCc4ccco4)cnc32)cc1C,0.72,3.0,i,-3.1,8.7,?,2.5
Cc1ccc(S(=O)(=O)N(C)C)cc1NC(=O)C(C)OC(=O)CC1CC2CCC1C2 (stereo not drawn),/,/,i,/,-1.1,/,-0.9
COc1ccc2c(c1)c(C(C)=O)c(C)n2CCc1ccc(OC)c(OC)c1,0.65,4.6,i,1.2,-1.2,0%,2.5
COc1ccc2nc(C)cc(N3CCN(S(=O)(=O)c4ccccc4F)CC3)c2c1,0.68,1.8,i,/,-1.4,-15%,-1.0
CC(=O)Nc1ccc(S(=O)(=O)N2CCC(C(=O)NC3CC3)CC2)cc1,0.69,1.5,i,-0.4,-1.3,-4%,-2.1
O=c1cc(-c2cccc(F)c2)[nH]c2ccccc12,0.76,-4.7,i,1.0,-2.9,28%,0.5
O=C1CCC(=O)N1c1nc2nc(-c3ccccc3)cc(-c3ccccc3)n2n1,0.66,-66,/,0.8,/,5%,1.8
COc1ccc(CCNC(=O)Cn2cnc3c(cnn3C(C)(C)C)c2=O)cc1OC,0.66,-0.7,/,2.5,/,-4%,-1.4
Oc1ccc(Br)cc1-c1cc(-c2ccccc2F)[nH]n1,0.69,1.2,/,0.4,/,19%,0.5
c1ccc2oc(Cc3ccc(Cc4nc5ccccc5o4)cc3)nc2c1,0.73,4.4,/,-0.6,/,8%,-2.8
CCN(CC(=O)NCc1cccs1)C(=O)c1ccc(OC)c(S(=O)(=O)N2CCOCC2)c1,0.71,1.2,/,/,-1.6,9%,1.3
CCOC(=O)c1cnc2ncnn2c1N,0.71,0.3,/,-4.0,-2.0,-7%,-1.3
Cc1ccccc1N1C(=O)c2cccc([N+](=O)[O-])c2C1=O,0.74,3.7,i,/,-4.7,3%,0.4
Cc1onc(-c2ccccc2Cl)c1C(=O)Nc1ccc(S(=O)(=O)N2CCCC2)cc1,0.77,2.1,i,?,-1.8,2%,-0.2
Cc1nnc(NC(=O)C(c2ccccc2)c2ccccc2)s1,0.7,1.3,i,2.8,-6.4,16%,3.1
CCCn1c(SCC(=O)NC2CCCC2)nnc1-c1ccccn1,0.67,1.0,i,1.4,-1.3,1%,-2.8
Cc1cccc(C(=O)Nc2ccccc2C(=O)NCc2cccnc2)c1,0.7,4.6,i,2.8,-3.2,-2%,-0.9
CC(OC(=O)[C@H](C)NC(=O)c1ccccc1Cl)C(=O)NCc1ccc2c(c1)OCO2 (stereo partly drawn),0.67,1.4,i,?,-1.2,-6%,-1.3
Cc1cc([N+](=O)[O-])nn1CCCC(=O)N1CCN(c2ccc(F)cc2)CC1,0.7,1.2,/,4.9,/,-6%,-3.8
Cc1ccc(C(=O)N(C)CCOc2ccccc2)cc1S(=O)(=O)N1CCCCC1,0.7,0.6,i,/,6.4,-11%,2.9
CCCNC(=O)CSc1nnc(C)s1,0.69,-1.4,/,/,/,6%,-0.9
CSc1ccc(CN2CCCC(CNC(=O)c3ccc(F)cc3)C2)cc1 (stereo not drawn),0.69,3.9,i,3.3,-0.1,25%,-2.6
O=C(CC[C@H]1O[C@@H](n2ccc(=O)[nH]c2=O)[C@H](O)[C@@H]1O)N[C@@H](Cc1ccccc1)C(=O)NCc1ccccc1,/,/,i,/,0.8,/,4.5
Cc1ccc(OCC(=O)Nc2nc(-c3ccccn3)cs2)c(C)c1,0.68,4.8,i,1.0,-2.2,-12%,1.9
COc1cc(C(=O)NNC(=O)c2ccoc2C)cc(OC)c1OC,0.69,1.9,i,0.0,1.5,?,3.2
Cn1nc(C(=O)N2CCN(C(c3ccccc3)c3ccccc3)CC2)c2ccccc2c1=O,0.71,3.8,i,-3.1,-5.0,6%,2.6
c1ccc(C[C@H]2CN=C(Nc3ccccc3)N2CC2CCC2)cc1,/,5.2,i,/,-59,/,0.8

A second format for some results above:
mol: Cc1nnc(NC(=O)C(c2ccccc2)c2ccccc2)s1
  E coli growth = 0.7 | UCH37 inh = 1.3 | FGF22 binding = i | RanGTP-Impb inh = 2.8 | MLL AF4-AF9 inh = -6.4 | Vif A3G = 16% | HNF4A DNA FP = 3.1
mol: COc1cc(C(=O)NNC(=O)c2ccoc2C)cc(OC)c1OC
  E coli growth = 0.69 | UCH37 inh = 1.9 | FGF22 binding = i | RanGTP-Impb inh = 0.0 | MLL AF4-AF9 inh = 1.5 | Vif A3G = ? | HNF4A DNA FP = 3.2

(list continues)
SMILES,E coli growth,UCH37 inh,FGF22 binding,RanGTP-Impb inh,MLL AF4-AF9 inh,Vif A3G,HNF4A DNA FP
Cc1c(N2C(=O)SC(CC(=O)O)C2=O)c(=O)n(-c2ccccc2)n1C (stereo not drawn),0.74,-0.3,/,/,/,-5%,-3.3
Cc1cc(C(=O)CSc2nc(N)cc(=O)[nH]2)c(C)n1-c1cccc(F)c1,0.66,2.8,i,-5.0,1.5,10%,4.0
CCc1nc2ccc(C(=O)NCCCN3CCCC3=O)cn2c1N(C)C(=O)c1cccc(OC)c1,/,/,i,/,-1.9,/,-2.0
COc1ccc(CN(C)CC2CCCN(CCc3ccc(Cl)cc3)C2)cc1OC (stereo not drawn),0.65,3.9,i,4.8,3.6,/,-1.9
CC(=O)OCC(=O)[C@@]1(O)CC[C@H]2[C@@H]3C[C@H](C)C4=CC(=O)C=C[C@]4(C)[C@H]3[C@@H](O)C[C@@]21C,/,4.3,i,0.0,-4.0,/,-1.8
Cc1ccc(C23CC4CC(CC(C(=O)NC(C(=O)O)C(C)C)(C4)C2)C3)cc1 (stereo not drawn),0.69,1.8,i,-1.2,3.7,/,-1.7
O=C(Nc1nccs1)C1CC=CCC1C(=O)OCC(F)(F)C(F)F (stereo not drawn),0.71,3.8,/,/,-22,-1%,-0.1
O=C(N/N=C/c1ccco1)c1cc(-c2ccncc2)nc2ccccc12,/,/,i,?,3.5,19%,-4.3
N#Cc1c(NC(=O)CCC(=O)O)sc2c1CCCCC2,0.69,4.3,i,1.1,-11,-8%,-7.2
O=c1cc(CN2CCN(c3ccccn3)CC2)nc2sccn12,0.7,0.2,i,-2.0,-6.7,3%,3.7
COCCN(CC(=O)Nc1cccc(C)c1C)C(=O)Cn1c(=O)cnc2ccccc21,0.7,3.6,i,/,-0.8,/,3.7
CCCCSc1nc2sc3c(c2c(=O)n1-c1ccccc1)CCN(C)C3,0.69,-45,i,-10,9.6,-2%,7.0
COCC(=O)Nc1ccc2c(c1)OCC(=O)N2Cc1ccccc1F,0.71,1.1,i,0.7,-1.6,-7%,-5.1
CCN(CC)C(=O)CN(c1cccc(C(F)(F)F)c1)S(C)(=O)=O,0.66,1.5,/,-1.8,/,19%,2.2
CC1(C)Cc2c(sc(/N=C/N3CCCC3)c2C#N)C(C)(C)N1,/,/,/,-3.5,/,-3%,1.1
COC(=O)c1[nH]nc(-c2ccccc2)c1-c1ccccc1,0.73,3.3,i,-0.9,-1.0,/,4.4
Cn1c(=S)[nH]c2[nH]c(=O)cnc2c1=O,0.68,13,i,-0.7,-4.8,/,-0.6
COc1ccc(OC(=O)CCc2c[nH]c3ccccc23)cc1,0.68,-0.3,i,7.9,3.7,/,-7.1
O=c1[nH]ncn1-c1ccccc1C(F)(F)F,0.68,0.3,/,0.3,/,-4%,-1.4
Cc1ccc2oc(=O)n(Cc3ccc(OC(C)C)cc3)c2c1,/,/,i,-1.4,-27,?,-2.5
C=CCN(c1ccc(C(=O)NCCCn2ccnc2)cc1)S(C)(=O)=O,0.72,0.9,i,-2.5,-2.2,/,2.5
Cc1ccc(S(=O)(=O)NCCC(=O)Oc2ccc3ccc(=O)oc3c2)cc1,0.73,i,i,7.9,-3.3,-1%,5.5
O=C(Nc1ccccc1N1CCOCC1)[C@@H]1O[C@H](CO)[C@H](O)[C@H](O)[C@H]1O,/,/,i,/,0.1,/,-1.9
